VACV mCherry inh: inhibitors of vaccinia virus infection (mCherry reporter signal). Potency, µM (series often up to 36.5 µM), without a hit: top-dose activity change, negative = inhibition, hits mostly inhibitors. 310,000 tested, 0.63% active. Vaccinia virus mCherry reporter infection, fluorescence; about a quarter of the inactives have no number. AID 720579; active = well fitted inhibition curve with a large enough effect; inconclusive = small, poorly fitted or top-dose-only effect; inactive = no such curve, though single readings can be large or run the other way; tested in A549 cells; further: nearly all actives have a fitted effect of over 35% in size; inactives centre near -10
Vaccinia Venus: inhibitors of vaccinia virus (Venus reporter); Vaccinia virus Venus reporter expression, fluorescence; Potency, µM (highest dose often 36.5 µM), without a hit: at the top dose activity change, negative = inhibition, hits mostly inhibitors; 330,000 tested, 0.46% active; AID 720580; active means well fitted inhibition curve with a large enough effect; inconclusive means small, poorly fitted or top-dose-only effect; inactive means no such curve, though single readings can be large or run the other way; tested in A549 cells; further: nearly all actives have a fitted effect of over 30% in size; inactives centre near -10
Numbers without * were called inactive; & = joins results of further samples; [ ] = dose if it differs, or a comment. On the % scale 0 is the no-effect control and ±100 the full control effect; potency means the concentration at half of the fitted maximal effect. The order is random; overall some 0.88% were active at least once.

Screening CCOc1ccc(C(=O)Nc2ccc(-c3nc4ccccc4[nH]3)cc2)cc1[N+](=O)[O-] returned VACV mCherry inh 0%&-23% and Vaccinia Venus 2%&-5%.
For CCn1cnc2cc([N+](=O)[O-])ccc21 the results were VACV mCherry inh -11% and Vaccinia Venus -16%.
Screening Cc1c(C(=O)NC(C)C)oc2c1-c1[nH]ncc1CC2 returned VACV mCherry inh inactive and Vaccinia Venus -3%.
`CCOC(=O)c1nnn(CC(=O)NC(=O)Nc2ccccc2F)c1C(=O)OCC` gave VACV mCherry inh -6% and Vaccinia Venus -1%.
Screening Cc1ccc(S(=O)(=O)N(C)C[C@@H]2Oc3c(NC(=O)C4CC4)cccc3C(=O)N([C@@H](C)CO)C[C@@H]2C)cc1 returned VACV mCherry inh inactive and Vaccinia Venus -20%.
`CCCCNc1nc2c(S(=O)(=O)c3ccc(C)cc3)nnn2c2ccsc12` gave VACV mCherry inh -11% and Vaccinia Venus -8%.
`Cc1ccc(C2SCC(=O)Nc3c2c(=O)[nH]n3C2CCOC(C)(C)C2)cc1` (stereo not drawn) gave Vaccinia Venus -16%.
Nc1nc(NC(=O)/C=C/c2ccc(F)cc2)nn1-c1ccccc1 was read as VACV mCherry inh -25% and Vaccinia Venus -18%.
`COc1ccc(C(=O)NCC(c2ccc(N(C)C)cc2)N2CCCC2)c(OC)c1` (stereo not drawn) gave VACV mCherry inh -7% and Vaccinia Venus -14%.
For O=C(NCCc1ccccc1)c1cc(-c2ccc(Cl)c(Cl)c2)on1 the results were VACV mCherry inh 14% and Vaccinia Venus 15%.
O=C(/C=C/[C@H]1O[C@@H](n2cnc3c(NC(=O)c4ccccc4)ncnc32)[C@H](O)[C@@H]1O)NCCc1ccc(F)cc1 was read as VACV mCherry inh 3% and Vaccinia Venus -4%.
For CC(c1ccco1)N(C(=O)C12CC3CC(CC(C)(C3)C1)C2)c1ccccn1 (stereo not drawn) the results were Vaccinia Venus -3%.
For COC(=O)COc1ccc(C(=O)OC)cc1 the results were VACV mCherry inh -9% and Vaccinia Venus -11%.
CCCCOc1ccc(-c2nc(-c3cccnc3)no2)cc1 was read as Vaccinia Venus -16%.
For CSc1nc(C=Nc2ccccc2Cl)c(O)n1Cc1cccc(Cl)c1 the results were VACV mCherry inh -7% and Vaccinia Venus -14%.
`O=S(=O)(Cc1nnnn1-c1ccccc1)c1ccc(Cl)cc1` gave VACV mCherry inh -16% and Vaccinia Venus -7%.
`CCN(C(=O)COC(=O)c1cc2ccccc2cc1O)C1CCS(=O)(=O)C1` (stereo not drawn) gave VACV mCherry inh -23% and Vaccinia Venus -15%.
CN1CCN(C(=O)C2=C[C@@H](c3ccc(Br)cc3)C[C@@H](OCc3ccc(CO)cc3)O2)CC1 was read as VACV mCherry inh -2% and Vaccinia Venus -22%.
CCC(=O)N1Cc2cc(C(=O)NCC(F)(F)F)nc(-c3cccc(-c4cncnc4)c3)c2[C@@H]1CCO was read as VACV mCherry inh -12% and Vaccinia Venus -9%.
COc1ccc(OC)c(NC(=O)C2CC(=O)N(Cc3ccco3)C2)c1 (stereo not drawn) was read as VACV mCherry inh inactive and Vaccinia Venus -2%.
O=C(Cn1c(=S)[nH]c2ccccc21)c1ccccc1 was read as VACV mCherry inh inactive and Vaccinia Venus -24%.
Screening O=C(NCCNCCO)C1(C(F)(F)F)C/C(=C\CCO)CCCO1 (stereo not drawn) returned VACV mCherry inh inactive and Vaccinia Venus 4%.
Screening CCOc1ccc(C(=O)NCCN2CCOCC2)cc1 returned VACV mCherry inh -3% and Vaccinia Venus -13%.
COc1cccc(CN(C)C(=O)c2cnn(-c3nccc(-c4ccc5c(c4)OCO5)n3)c2C)c1 was read as VACV mCherry inh -10% and Vaccinia Venus -2%.
Screening Cc1ccc(CNCCCn2cnc(C(=O)Nc3ccc(C)c(C)c3)n2)o1 returned VACV mCherry inh inconclusive and Vaccinia Venus -15%.
`O=c1[nH]c2ccc(Br)cc2c(-c2ccccc2)c1N1CCOCC1` gave VACV mCherry inh inconclusive and Vaccinia Venus inconclusive.
`Cc1ccc(N2C(=O)c3oc4ccccc4c(=O)c3C2c2cccc(O)c2)nc1` (stereo not drawn) gave VACV mCherry inh -14% and Vaccinia Venus -7%.
c1cncc(-c2nnc(SCc3nc4ccccc4[nH]3)o2)c1 was read as VACV mCherry inh -14% and Vaccinia Venus -3%.
COCC(=O)N1CCC(Oc2ccc(C(=O)N3CCSCC3)cc2)CC1 was read as VACV mCherry inh -16% and Vaccinia Venus -8%.
N#CCc1nc(-c2cc3ccccc3oc2=O)cs1 was read as VACV mCherry inh -12% and Vaccinia Venus -4%.
CCCC1=C(C(=O)OCC)C(c2ccc(OC)c(C)c2OC)C(C#N)=C(N)O1 (stereo not drawn) was read as VACV mCherry inh inactive and Vaccinia Venus -11%.
`CCOc1ccc(C(C(=O)NC2CCCCC2)N(C(=O)c2ccccn2)c2cccnc2)cc1` (stereo not drawn) gave VACV mCherry inh -2% and Vaccinia Venus -9%.
CS(=O)(=O)Nc1ccc(C(=O)Nc2ccc3ccccc3c2)cc1 was read as VACV mCherry inh -12% and Vaccinia Venus -8%.
For CCCNC(=O)C1(C)CCN(C(=O)Cc2ccc3ccccc3c2)C1 (stereo not drawn) the results were VACV mCherry inh inactive and Vaccinia Venus -6%.
O=C(/C=C/c1c[nH]c2ccccc12)c1ccccc1 was read as VACV mCherry inh inconclusive and Vaccinia Venus inconclusive.
`CC(C)COc1ccc(C(=O)N2CCCCC2CCN2CCCCC2)cc1` (stereo not drawn) gave VACV mCherry inh -28% and Vaccinia Venus -20%.
For Cc1c(NC(C)C)c(=O)n(-c2ccccc2)n1C the results were VACV mCherry inh -3%&-12% and Vaccinia Venus -16%&-9%.
For CCCC1(c2ccccc2)NC(=O)N(CC(=O)c2[nH]c(C)c(C(=O)OCC)c2C)C1=O (stereo not drawn) the results were Vaccinia Venus inconclusive.
Screening CCC(c1nc2ccccc2[nH]1)N(CCCn1ccnc1)C(=O)c1ccc(C(F)(F)F)cc1 (stereo not drawn) returned VACV mCherry inh 6% and Vaccinia Venus 4%.
Screening CCCS(=O)(=O)NCc1c(C)ncc2c1CCN(C(=O)/C=C/c1cccc(Cl)c1)C2 returned VACV mCherry inh -7% and Vaccinia Venus 15%.
`COC(=O)c1ccccc1NC(=O)Cn1cc(Br)cn1` gave Vaccinia Venus -15%.
For C=CCN(CC=C)C(=O)CCN1CC1C (stereo not drawn) the results were VACV mCherry inh inconclusive and Vaccinia Venus -8%.
For COc1ccc(-c2cc3ccccc3c(=O)o2)cc1 the results were VACV mCherry inh -6% and Vaccinia Venus -10%.
For COc1ccc(N2C(=O)CC(NNc3ncc(Cl)cc3Cl)C2=O)cc1 (stereo not drawn) the results were VACV mCherry inh -5% and Vaccinia Venus -5%.
For CN(C)C(=S)SCC(=O)Nc1cccc(C(F)(F)F)c1 the results were VACV mCherry inh -1% and Vaccinia Venus -14%.
Screening CN(/N=C/c1ccccc1O)C(=S)c1ccccc1 returned VACV mCherry inh -15% and Vaccinia Venus -16%.
For O=c1cc(N2CCC3(CC2)OCCO3)[nH]c(=O)n1-c1ccc(Br)cc1 the results were VACV mCherry inh -12% and Vaccinia Venus -5%.
For Cc1c(Cl)c(C(F)(F)F)nn1CC(=O)NCc1ccccc1 the results were VACV mCherry inh -17% and Vaccinia Venus -23%.
For O=C(Cn1c(=O)oc2ccccc21)N1CCCC1 the results were VACV mCherry inh -14% and Vaccinia Venus -1%.
Screening Cc1cccnc1N(C(=O)Nc1cccc(Cl)c1)C1=NCC(C)(C)S1 returned VACV mCherry inh -10% and Vaccinia Venus -9%.
For CCC12CC3CC(C1)CC(C(=O)NNC(N)=O)(C3)C2 the results were VACV mCherry inh -14% and Vaccinia Venus -2%.
For O=C1NC(=O)/C(=C\c2ccc(Cl)cc2Cl)N1 the results were VACV mCherry inh -8% and Vaccinia Venus 1%.
`O=C(CSc1ccccn1)Nc1ccc(N2CCOCC2)cc1` gave VACV mCherry inh inactive and Vaccinia Venus 8%.
COc1ccc(C2C(C#N)=C(N)N(c3ncn[nH]3)C3=C2C(=O)CCC3)cc1 (stereo not drawn) was read as VACV mCherry inh 1% and Vaccinia Venus -6%.
CCN(CC)CCn1c2ccccc2c2nc(C)sc21 was read as VACV mCherry inh 6% and Vaccinia Venus 13%.
`Cc1cc(=O)[nH]c(SCC(=O)Nc2cccc(C(F)(F)F)c2)n1` gave Vaccinia Venus -20%.
`C=CCOc1ccc(/C=N/NC(=O)CN2CCOCC2)cc1OCC` gave VACV mCherry inh inactive and Vaccinia Venus -5%.
Screening Cc1ccc(C(=O)NCC(c2ccco2)N2CCc3ccccc3C2)cc1 (stereo not drawn) returned VACV mCherry inh -3% and Vaccinia Venus -15%.
`Cc1cc(C)n(Cc2ccc(C(=O)N/N=C/c3ccc(-c4ccc([N+](=O)[O-])cc4)o3)o2)n1` gave VACV mCherry inh -3% and Vaccinia Venus -18%.
`CCOC1=C(C#N)CC2(CC1)c1ccccc1-c1ccccc12` gave VACV mCherry inh -10% and Vaccinia Venus -2%.
For O=C(Cn1c(NCCO)nc2ccccc21)NCCc1ccc(F)cc1 the results were Vaccinia Venus -5%.
O=c1ccn(Cc2ccccc2)c(SCc2ccccc2)n1 was read as VACV mCherry inh -24% and Vaccinia Venus -6%.
Screening Cc1ccc(S(=O)(=O)NC(=O)NCc2ccccn2)cc1 returned VACV mCherry inh -10% and Vaccinia Venus -4%.
Screening O=C(N/N=C/c1cn[nH]c1-c1ccc(Cl)cc1)c1ccc([N+](=O)[O-])cc1 returned VACV mCherry inh inactive and Vaccinia Venus -8%.
Screening O=C(CSc1nnc(CNC(=O)c2cccc(C(F)(F)F)c2)o1)NCC1CCCO1 (stereo not drawn) returned VACV mCherry inh -12% and Vaccinia Venus -13%.
`FC(F)(F)c1cccnc1Oc1ccc(C2=NCCS2)cc1` gave VACV mCherry inh -4%[7.34 µM] and Vaccinia Venus -10%[7.34 µM].
COc1ccccc1NC(=O)c1ccc(C)c(S(=O)(=O)N2CCCCC2)c1 was read as VACV mCherry inh inconclusive and Vaccinia Venus inconclusive.
For Cc1nn(-c2ccccc2)c2nc3c(cc12)C(=O)CCC3 the results were VACV mCherry inh -24% and Vaccinia Venus -23%.
Screening CC(C(=O)O)n1ncc2ccccc2c1=O (stereo not drawn) returned VACV mCherry inh -10% and Vaccinia Venus 1%.
For CCn1ncc([C@@H]2C[C@H]3CN(Cc4cccc(Cl)c4)C(=O)[C@]34CCCN24)c1C the results were VACV mCherry inh -14% and Vaccinia Venus 2%.
For Cc1ccc(NC(=O)C2CC(=O)Nc3nc4ccccc4n32)c(C)c1 (stereo not drawn) the results were VACV mCherry inh inactive and Vaccinia Venus 2%.
Cc1ccccc1NC(=O)C(=O)NCCc1c[nH]c2ccccc12 was read as VACV mCherry inh -24% and Vaccinia Venus -22%.
Screening COc1ccc2c3c1OC1[C@H](O)CCC4[C@@H](C2)N(C)CC[C@]314 (stereo partly drawn) returned VACV mCherry inh -15% and Vaccinia Venus -7%.
Screening CCOC(=O)c1c(C)oc2c1c(CN1CCN(C(=O)OCC)CC1)c(O)c1ccccc12 returned VACV mCherry inh -17% and Vaccinia Venus -17%.
`C/C(=N/NC(=O)CNC(=O)Cc1ccc(Cl)cc1)c1ccco1` gave VACV mCherry inh -6% and Vaccinia Venus -5%.
COC(=O)C1=C(C)N(C2CCCC2)C(=O)C1(NC(C)=O)C(F)(F)F (stereo not drawn) was read as Vaccinia Venus -27%.
For Cc1ccc(S(=O)(=O)N2CCN(Cc3nc4sc(C)c(C)c4c(=O)[nH]3)CC2)cc1 the results were VACV mCherry inh -12% and Vaccinia Venus -2%.
O=C1CCCC2=C1C(c1ccccc1O)C1=C(CCCC1=O)O2 was read as Vaccinia Venus -20%.
Screening COc1ccc(CN2C(=O)c3ccccc3C2C(=O)NCCc2ccccc2)c(OC)c1 (stereo not drawn) returned VACV mCherry inh inconclusive and Vaccinia Venus -14%&-9%.
Screening Cc1ccc(NC(=O)C(OC(=O)c2cc(C)oc2C)c2ccccc2)cc1 (stereo not drawn) returned VACV mCherry inh -2% and Vaccinia Venus -12%.
Cc1ccc(S(=O)(=O)N2CCOCC2)s1 was read as VACV mCherry inh inactive and Vaccinia Venus -16%.
`CCN(CC)S(=O)(=O)c1cccc(NC(=O)COC(=O)c2cc(C)oc2C)c1` gave VACV mCherry inh -6% and Vaccinia Venus -7%.
O=C(Cn1c(NCCO)nc2ccccc21)c1ccco1 was read as VACV mCherry inh inactive and Vaccinia Venus -7%.
Fc1ccc(-c2n[nH]c(=S)n2Cc2ccccc2)cc1 was read as VACV mCherry inh -8% and Vaccinia Venus 0%.
